Bioassay records: PubChem, several laboratories
T cruzi inh: T. cruzi replication inhibition. T. cruzi beta-gal in NIH3T3, luminescence, 90 h. inhibition, % (concentration not given with the values). actives 1.4% (n = 300,000);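 active = mean inhibition across valid replicates above about 55%, limit read from the data; inconclusive = mean below that limit but half or more replicates reach it; inactive = mean below it, under half of replicates reach it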;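 also: signal also drops with host cell toxicity which is not excluded here; 0% = plate median of DMSO wells and 100% = zero luminescence signal; higher percent means less beta-gal luminescence so fewer parasites; stock transfer was 50 nL into about 50 µL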
Beta cell apopt: beta cell apoptosis inhibition; protection from apoptosis, % (test concentration not listed); AID 435005; INS-1E cytokine-induced death, ATP luminescence, 48 h; percent of positive-control rescue, neutral wells zero; actives 0.8% (n = 300,000);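 active = all replicates at 75% or more, or half of them and the mean; inconclusive = half reach 75% but not the mean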;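 also: 0% = cytokine-treated negative control wells and 100% = positive control rescue; higher means more ATP so stronger rescue from cytokine killing; wells of about 40 µL received 100 nL stock; the first replicate is given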
A1 inh: inhibitors of the anti-apoptotic protein A1, read as caspase activation | MEF A1-2A-BIM cells, Caspase-Glo 3/7 luminescence, 3 h; percent of clofoctol response, vehicle zero | caspase activation, % (concentration not given with the values) | actives 0.066% (n = 330,000) | AID 2462;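 active = over half of replicate activation scores above 10%, or exactly half above 10 with the replicate mean above 10; inconclusive = replicate mean below 10 yet half the replicates above 10; inactive = over half of replicates below 10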;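 also: wells of about 30 µL received 50 nL stock; many hits fall short of the cut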
Beta2AR agonist: human beta-2 adrenergic receptor agonism by FAP | P07550 | response, % (test concentration not listed) | AID 504454 | Am2.2-beta2AR cells, FAP receptor internalization, flow cytometry; reference of the scale not given here | actives 0.43% (n = 340,000);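 active = response above a set limit, near 3 SD of response in nonfluorescent compounds, cut at about 42% in these data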;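 also: stock transfer was 100 nL into about 11 µL; a reference agonist was the positive control; negative values mostly stem from fluorescent compounds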
Target sequence (P07550 whole entry, looked up): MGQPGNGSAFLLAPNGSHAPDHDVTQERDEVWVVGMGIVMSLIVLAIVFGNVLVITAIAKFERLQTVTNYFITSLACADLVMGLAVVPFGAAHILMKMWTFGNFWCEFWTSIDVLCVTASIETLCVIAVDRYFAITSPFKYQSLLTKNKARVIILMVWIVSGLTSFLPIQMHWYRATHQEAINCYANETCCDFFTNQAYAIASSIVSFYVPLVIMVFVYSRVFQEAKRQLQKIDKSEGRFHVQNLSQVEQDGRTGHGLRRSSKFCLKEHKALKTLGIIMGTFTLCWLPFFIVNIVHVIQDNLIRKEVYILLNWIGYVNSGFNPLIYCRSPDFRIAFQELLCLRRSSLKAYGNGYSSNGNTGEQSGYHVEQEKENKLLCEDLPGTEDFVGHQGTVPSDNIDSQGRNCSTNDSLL
UCH37 DUB inh: human UCH37 deubiquitinating enzyme inhibition | Q9Y5K5 | purified proteasome/UCH37, Ub-AMC cleavage fluorescence | inhibition, % (no concentration beside the values) | actives 0.33% (n = 330,000) | AID 588478;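 active = mean of two replicates above 20%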;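 also: 0% = compound-free wells with enzyme and 100% = wells lacking proteasome; stock transfer was 100 nL into about 20 µL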
Target sequence (Q9Y5K5 whole entry, looked up): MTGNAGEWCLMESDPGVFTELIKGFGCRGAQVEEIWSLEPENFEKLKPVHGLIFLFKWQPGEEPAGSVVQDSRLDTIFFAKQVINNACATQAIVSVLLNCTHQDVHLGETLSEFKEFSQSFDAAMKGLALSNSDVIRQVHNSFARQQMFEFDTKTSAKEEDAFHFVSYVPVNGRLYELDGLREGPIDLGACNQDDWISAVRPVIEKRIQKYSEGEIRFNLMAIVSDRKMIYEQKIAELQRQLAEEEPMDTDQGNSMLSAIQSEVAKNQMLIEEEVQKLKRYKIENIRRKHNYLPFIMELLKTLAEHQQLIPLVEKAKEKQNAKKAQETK
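Material: human UCH37 enzyme supplied as purified proteasome complex / Amount: 0.15 nM proteasome as dispensed / Buffer or medium: pH 7.4 Tris-HCl (50 mM) with ovalbumin, ATP-MgCl2, DTT / Times: preincubation 30 min, reaction 25 min, room temperature / Technique: AMC fluorescence from Ub-AMC cleavage, excitation 355 nm, emission 460 nm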
RanGTP-Impb inh: inhibitors of RanGTP-importin-beta interaction, primary screen, biochemical, FRET, CFP-Ran, YFP-importin-beta, homogeneous; actives 1.1% (n = 300,000); cell-free CFP-Ran/YFP-importin-beta FRET ratio; inhibition, % (concentration not given with the values);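 active = most replicates above 15%; inconclusive = exactly half above 15%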;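 also: 0% = DMSO wells and 100% = Ran loaded with GDP instead of GTP; wells of about 40 µL received 100 nL stock; the first replicate is given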
LANA-H2A inh: blocks KSHV LANA binding to histone H2A/H2B | Q9QR71 | cell-free LANA-H2A/H2B peptide, fluorescence polarization | inhibition, % (test concentration not listed) | actives 0.6% (n = 320,000) | AID 2629; in the data active = inhibition mostly above about 10%, no sharp cut-off; inactive = mostly below about 6.7%;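 also: stock transfer was 7.5 nL into about 10 µL; 0% = median of vehicle wells and 100% = median of positive control wells; one replicate is shown; the record names a cut of 25% in any replicate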
Calb FLC: affects C. albicans growth with fluconazole. C. albicans CaCi-2 (fluconazole-resistant clinical isolate) + fluconazole, Alamar Blue growth, 48 h. growth inhibition, % (test concentration not listed). actives 0.57% (n = 300,000);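 active = most replicates above 75%; inconclusive = exactly half above 75%; inactive = most below 75%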;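 also: all wells also contain fluconazole at 8 µg/ml as a sub-toxic cotreatment; 0% = median of DMSO wells and 100% = median of geldanamycin control wells; wells of about 8 µL received 7.5 nL stock; the first replicate is given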
* = called active by the depositor; ? = inconclusive; . = not tested or not shown; & = joins results of further samples. No enrichment for hits. Share with any hit: about 4.3%.

SMILES	T cruzi inh	Beta cell apopt	A1 inh	Beta2AR agonist	UCH37 DUB inh	RanGTP-Impb inh	LANA-H2A inh	Calb FLC
COc1ccc(-c2cc(C(=O)NCCc3ccc(S(N)(=O)=O)cc3)c3ccccc3n2)cc1	3	-1	-0.6	3	3.4	-0.7	3.5	9
CCNc1nc(NCC)nc(OCCOC(C)=O)n1	-19	-4	-0.7	13	0.9	3.8	3.8	0
CCOC(=O)CCn1nc(-c2ccccc2)cc1N	0	-5	0.5	-7	3.7	2.6	2.9	11
C=CCNC(=S)NNC(=O)c1ccc2c(c1)OCO2	-21	-6	0.0	-2	-2.1	-1.6	2.0	-10
CCOC(=O)c1cnc(-c2cccc(OC)c2)[nH]c1=O	3	2	-0.8	4	-3.9	-3.4	3.8	42
O=C(O)CCCCCCCCc1cn(CCc2c[nH]c3ccccc23)nn1	-5	-7	0.1	4	3.2	-0.6	3.0	-5
C/C(=N/NC(=O)CNC(=O)c1ccc2c(c1)OCO2)c1ccc2c(c1)CCCC2	11	-7	0.2	-3	.	-4.2	5.3	2
Cc1ccn2c(CNCCCn3cccn3)c(C(=O)N3CCCCCC3)nc2c1	1	-2	-0.4	-15	-0.5	?	-4.9	-6
Cc1cc(Cl)c2oc(C(=O)N(C)CCCN3CCOCC3)c(C)c2c1	17	1	0.6	-2	3.4	5.8	-6.4	1
Cc1csc(=Nc2c(C)n(C)n(-c3ccccc3)c2=O)n1-c1ccccc1	-14	4	0.0	-4	-1.3	-1.1	9.0	-16
CC(C)(C)c1cc(C(=O)NNc2cc(C(F)(F)F)ccc2Cl)n(Cc2ccccc2)n1	.	36	-0.5	4	3.3	-4.3	0.6	-8
CC(C)[C@@H](C(=O)N[C@@H](C(=O)O)c1ccccc1)N1C(=O)N2CCc3c([nH]c4ccccc34)[C@@]2(C)C1=O	15	-6	0.1	2	5.7	0.5	-0.7	-1
COc1ccc(N2C(=O)c3ccccc3NC2c2ccc(OC)c(Cn3nnc4ccccc43)c2)cc1 (stereo not given)	16	4	0.0	1	-93	-5.1	1.8	-11
O=C1CC(N2CCN(Cc3ccc4c(c3)OCO4)CC2)C(=O)N1c1cccc(Cl)c1 (stereo not given)	-28	.	0.5	5	4.2	-2.6	2.6	5
Cc1ccc(NC(=O)/C(=C\c2cccc([N+](=O)[O-])c2)NC(=O)c2cccs2)cc1	-4	.	-0.4	3	3.8	3.5	-2.3	8
Cc1ccccc1CSCCC(=O)NCCC1=CCCCC1	3	-3	-1.1	-8	0.6	2.1	-4.2	-27
O=[N+]([O-])c1cccc(C(=S)N2CCN(c3ccccc3F)CC2)c1	8	-5	0.8	13	6.2	-2.2	2.5	-6
O=C(N=c1ccn(-c2nc3ccccc3nc2NS(=O)(=O)c2ccccc2)cc1)c1ccccc1Cl	0	-2	-0.1	-4	3.4	0.0	3.2	-3
COCCCNC(=O)CC1C[C@H](C(=O)N2CCOCC2)[C@@]2(C)c3[nH]c4ccccc4c3CCN2C1=O (stereo not given in full)	.	-4	0.1	-6	2.9	.	-0.9	.
Cc1ccc(NC(=O)COC(=O)CN2CSCC2=O)cc1C	-7	-3	0.8	5	0.4	-2.9	-0.1	-7
COc1ccc(N2CCN(C(=S)Nc3cccc(C)c3)CC2)cc1	-27	-1	-0.8	-7	2.9	-0.7	2.2	5
Cc1cc(SCC(N)=O)nc(SCC(=O)c2ccccc2)n1	2	0	-0.4	1	3.3	-1.3	-1.0	9
Cc1nn(C)c(C(=O)Nc2ccc(S(=O)(=O)NC34CC5CC(CC(C5)C3)C4)cc2)c1Br	59*	36	0.1	9	1.4	?	57*	1
O=C(CCC(=O)N1CCN(c2ccc(F)cc2)CC1)N1CCN(c2ccc(F)cc2)CC1	-4	1	1.2	-4	0.5	2.3	2.0	-8
COc1ccc(NC(=S)Nc2ccc(N(C)C(C)=O)cc2)cc1	-15	2	-0.1	3	1.3	2.3	5.1	-11
O=C(Nc1cccnc1)c1cc2cc(Br)ccc2o1	-11	-5	-9.9	-41	0.7	1.6	4.2	16
O=C1CCN(Cc2ccc([N+](=O)[O-])cc2)CCN1[C@H](CO)c1ccccc1	0	1	0.6	-6	1.5	-2.7	3.2	-7
COc1ccc2[nH]c(C(=O)O)c(CCN3C(=O)c4ccc(C(=O)O)cc4C3=O)c2c1	-9	-8	0.1	1	-0.3	5.3	-2.9	2
CCOC(=O)[C@H]1[C@H]2COc3ccccc3[C@@H]2N2C(=O)[C@@H](CO)NC(=O)[C@@]12C	.	-4	-0.5	0	0.8	.	-0.8	.
CC(=O)Nc1ccc(S(=O)(=O)N2CCN=C2SCc2ccc(F)cc2)cc1	5	13	-1.0	-5	-0.2	2.4	-0.1	7
C/C(CC1CC(C)(C)OC1=O)=N/Nc1nc(-c2ccccc2)cs1 (stereo not given)	-9	-5	0.6	4	.	2.4	-1.4	-35
COC(=O)Nc1ccc(S(=O)(=O)N2CCC(C(=O)NCc3ccc4c(c3)OCO4)CC2)cc1	.	0	-0.2	-6	-1.5	.	3.0	.
CS(=O)(=O)N1CCCC(C(=O)NCCCN2CCc3ccccc3C2)C1 (stereo not given)	-15	3	-0.2	3	3.1	5.2	4.6	1
Cc1nc2oc(C(=O)c3ccc(Br)cc3)c(N)c2c2c1COC(C)(C)C2	-1	-7	-1.1	-6	-3.1	1.2	-4.6	-4
CCCCC(CCC(=O)Nc1ccn(-c2ccccc2)n1)C(=O)O (stereo not given)	-7	-12	0.6	1	4.2	-3.6	-4.1	7
CN(C)CCNC(=O)C(=O)Nc1ccc2c(c1)N(S(=O)(=O)c1cccs1)CCC2	16	1	0.0	-1	1.8	1.9	5.3	4
O=C(O)C(c1ccccc1)C1(O)CCCC1 (stereo not given)	-16	-3	-0.2	3	1.9	2.3	0.7	0
COc1ccccc1C1CC(=O)Nc2cc3c(cc21)OCCO3 (stereo not given)	-83	32	0.8	14	-1.6	4.4	-1.6	9
Cc1c(C(=O)OCC[N+]2(C)CCCCC2)oc2ccccc12	-3	.	-0.7	-8	2.2	11	-1.8	-3
Cc1nn(C)cc1S(=O)(=O)Nc1ccccc1Br	-2	-5	-1.1	0	3.6	.	1.2	.
Cc1ccc(Nc2nc(N3CCN(C)CC3)nc(N)c2[N+](=O)[O-])cc1C	23	-4	1.1	.	8.7	-5.1	1.1	-8
Cc1nn(CC(=O)NCCc2ccc(Cl)cc2Cl)c(C)c1[N+](=O)[O-]	-11	5	0.7	0	2.9	?	-3.1	-1
Cc1cc(N2CCOCC2)n2ncc(-c3ccccc3Cl)c2n1	-1	3	-0.4	6	-23	-0.7	-0.8	1
O=C(Cn1cnc2ccccc2c1=O)Nc1ccc(N2CCOCC2)cc1	-16	-7	2.2	0	0.2	4.1	3.6	-6
Cc1ccc(S(=O)(=O)NC(C)(C)CSc2ncccn2)cc1	8	3	-0.6	4	0.0	0.2	0.9	-46
CN(Cc1cccc2ncccc12)C(=O)CC1C(=O)NCCN1Cc1ccc(F)cc1 (stereo not given)	1	-4	0.1	-4	-8.4	0.0	0.4	-2
COCCCNc1nc(N)c([N+](=O)[O-])c(NCC2CCCO2)n1 (stereo not given)	-27	0	0.4	-6	16	-2.2	-2.9	1
O=C(c1ccc(F)cc1)N1CCCC(c2nc(-c3ccncc3)no2)C1 (stereo not given)	.	3	0.1	0	0.4	.	-1.4	.
COc1ccc(CCn2c(-c3cc([N+](=O)[O-])cc([N+](=O)[O-])c3)nc3nc4ccccc4nc32)cc1	57*	11	0.2	0	5.4	5.7	2.5	?
COCCNC(=S)NNc1ccc(Cl)c(C(=O)O)c1	-5	-3	-0.3	-2	3.1	1.0	-0.4	-11
COc1ccc(OC)c(-c2nnc3n2N=C(c2ccc(OC)c(OC4CCOC4)c2)CS3)c1 (stereo not given)	.	19	0.8	13	2.4	.	1.2	.
O=C1c2ccccc2NC(c2cn[nH]c2-c2ccccc2)N1O (stereo not given)	-1	-2	-0.7	-4	7.5	0.2	-13	18
CCOC(=O)c1c(NCC2CCCO2)c2ccccc2[nH]c1=O (stereo not given)	-4	-1	0.6	-6	-3.2	-0.1	-0.2	6
C/C=C/c1ccc(OCCOc2ccc(C=O)cc2)c(OC)c1	-10	-2	0.2	5	4.9	2.5	0.0	29
CCOCc1nnc(NC(=O)c2c(OC)cccc2OC)s1	0	-5	0.5	0	-1.0	1.2	-2.6	3
O=S(=O)(NCc1ccc2c(c1)OCO2)c1ccc2oc3ccccc3c2c1	7	-3	0.4	-11	5.5	4.3	-1.0	-47
Cn1c(SCC(N)=O)nnc1C1CCN(C(=O)NCc2ccccc2)CC1	-12	-5	-0.2	-3	0.1	-4.6	1.2	3
Cc1cc(C)nc(N/N=C/C=C/c2ccccc2)n1	-6	-1	-0.8	5	.	2.5	-5.9	-23
CC(Oc1ccc2c(-c3ccccc3)cc(=O)oc2c1)C(=O)NCC1CCC(C(=O)O)CC1 (stereo not given)	-10&-16	-6&-1	-0.3&-0.1	1&6	8.4&2.3	2.1&1.5	1.2&1.2	-2&5
CC1C(=O)N2CCCc3cc(S(=O)(=O)N4CCN(c5cccc(Cl)c5)CC4)cc1c32 (stereo not given)	15	-8	0.5	6	1.4	-0.9	-0.4	1
Further results follow:
SMILES	T cruzi inh	Beta cell apopt	A1 inh	Beta2AR agonist	UCH37 DUB inh	RanGTP-Impb inh	LANA-H2A inh	Calb FLC
COc1ccccc1NS(=O)(=O)c1cc(NC(=O)c2cnccn2)ccc1N1CCOCC1	-3	6	0.3	-1	5.6	0.7	-0.8	-5
Cn1c(=O)c2c(ncn2CCCc2ccccc2)n(C)c1=O	-22	0	0.2	1	1.8	-11	0.0	9
O=C(Nc1ccc(C(=O)O)cc1)/C(=C\C=C\c1ccccc1)NC(=O)c1cccc(Br)c1	-5	.	1.8	8	15	?	-1.0	27
CN(C)S(=O)(=O)c1ccc(S(=O)(=O)N(CC(=O)Nc2ccccc2)CC2CCCO2)cc1 (stereo not given)	20	-2	1.2	2	1.2	0.6	0.6	11
Cc1ccccc1N1CCN(C2CCCN(C(=O)c3cnsn3)C2)CC1 (stereo not given)	-2	0	-0.4	-3	3.6	-1.5	1.2	-3
CCN(CC)c1ccc(NC(=O)COc2ccc(C#N)cc2)cc1S(=O)(=O)Nc1ccc(OC)cc1	29	16	0.2	-3	0.8	0.0	-17	-5
c1ccc(COc2ccc(OCCCN3CCCC3)cc2)cc1	25	7	-0.5	7	-1.2	-2.4	3.8	7
Cc1cccc(NC(=O)c2ccc(NCCO)c([N+](=O)[O-])c2)n1	6	2	-1.8	-8	3.0	-0.5	-0.9	4
O=C(CCl)Nc1cn(-c2ccccc2)nc1-c1ccc(F)cc1	-16	-9	0.3	4	4.2	5.0	-0.1	-9
Cc1oncc1C(=O)Nc1cccc2ccccc12	-6	.	.	4	2.7	2.3	.	4
CCOC(=O)c1sc(NC(=O)CCCCl)nc1C	-8	-3	-0.2	0	2.3	-0.8	7.3	1
